# Source: PubChem (National Center for Advancing Translational Sciences (NCATS))
# p53null 32C kill: p53 null cell cytotoxicity, permissive temperature. H1299-neo p53 null cells, ATP luminescence, 24 h, 32C. Potency, µM (top dose mostly 46.1 µM), inactives show at the highest dose activity change, negative = cytotoxicity, usual class: cytotoxic. 0.62% of 55,000 active. AID 903;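 further: potency means the concentration at half of the fitted maximal effect; 0% = DMSO only and -100% = full killing by 100 µM tamoxifen; nearly all actives have a fitted effect of over 55% in size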
#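 Cells lacking p53 (H1299-neo) are plated at 600 per well and allowed to settle overnight at 37C. Test compounds (up to 46 uM) are added and held 24 hours at 32C, then ATP is quantified by luminescence.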
# B2AR arrestin ag: beta-arrestin recruitment by human beta2-adrenergic receptor ligands. HTLA Tango cells, beta-arrestin recruitment, luciferase luminescence, 18 h. 44,000 tested, under 10 active. P07550. AID 1347077. Potency, µM (top dose mostly 46.1 µM), for the others: at the top dose activation, most hits filed as activators;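 further: potency means the concentration at half of the fitted maximal effect; 0% = DMSO and full agonism = EC100 isoproterenol or metaproterenol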
#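 Ligand-induced beta-arrestin recruitment to recombinant beta2-AR is measured via a tTA-driven luciferase reporter in Tango cells after 18 hr compound exposure at 37 degrees C. Concentrations span up to 46 microM.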
# FH mod: Identification of activators of human fumarate hydratase by quantitative high-throughput screening. AID 1347055, 2019. Fumarate hydratase, mitochondrial (Homo sapiens), P07954. Potency, µM (highest dose often 79.9 µM), inactives show at the top dose activity change, negative = inhibition, actives largely listed as inhibitors. FH coupled MDH/diaphorase resazurin fluorescence, 15 min. 0.22% of 54,000 active; further: potency means the concentration at half of the fitted maximal effect; on the % scale 0 is the no-effect control and ±100 the full control effect; the screen sought activators but most active calls are inhibition curves; nearly all actives have a fitted effect of over 45% in size
# Target sequence (P07954 whole entry, looked up): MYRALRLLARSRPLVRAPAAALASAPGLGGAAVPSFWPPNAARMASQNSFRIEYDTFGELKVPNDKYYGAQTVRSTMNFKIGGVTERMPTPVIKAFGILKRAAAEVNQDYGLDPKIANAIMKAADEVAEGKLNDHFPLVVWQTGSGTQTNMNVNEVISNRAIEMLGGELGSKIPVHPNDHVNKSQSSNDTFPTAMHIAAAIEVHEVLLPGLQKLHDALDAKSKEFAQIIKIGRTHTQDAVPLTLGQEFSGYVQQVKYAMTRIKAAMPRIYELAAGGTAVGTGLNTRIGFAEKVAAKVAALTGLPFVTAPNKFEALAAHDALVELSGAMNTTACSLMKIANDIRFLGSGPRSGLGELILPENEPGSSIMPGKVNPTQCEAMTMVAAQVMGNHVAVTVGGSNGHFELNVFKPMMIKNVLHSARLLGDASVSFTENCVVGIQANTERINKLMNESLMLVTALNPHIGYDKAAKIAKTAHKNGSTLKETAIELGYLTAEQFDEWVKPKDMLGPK
# GALK inh: GALK (human) enzyme inhibition. recombinant GALK, Kinase-Glo ATP luminescence, 1 h. P51570. Potency, µM (top dose mostly 57.5 µM), for inactives: top-dose activity, negative = inhibition, usual class: inhibitors. 44,000 tested, under 10 active;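 further: plate controls were full GALK reaction for no effect and reaction lacking GALK for full effect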
# Target sequence (P51570 whole entry, looked up): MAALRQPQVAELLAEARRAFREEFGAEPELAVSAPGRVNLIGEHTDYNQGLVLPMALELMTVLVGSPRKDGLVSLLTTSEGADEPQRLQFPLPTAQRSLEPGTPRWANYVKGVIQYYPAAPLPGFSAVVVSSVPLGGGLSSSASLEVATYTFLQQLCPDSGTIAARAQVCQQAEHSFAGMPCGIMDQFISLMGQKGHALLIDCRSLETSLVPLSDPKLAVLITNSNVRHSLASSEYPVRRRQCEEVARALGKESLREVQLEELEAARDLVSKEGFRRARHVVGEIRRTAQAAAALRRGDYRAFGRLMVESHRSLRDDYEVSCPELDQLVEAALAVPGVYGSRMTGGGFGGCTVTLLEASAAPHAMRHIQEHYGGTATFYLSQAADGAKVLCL
#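 Luminescent ATP-depletion readout (Kinase-Glo Plus) after 1 h room-temperature incubation of human GALK (5 nM) with galactose 100 µM and ATP 35 µM, pH 8.0 HEPES/Mg2+ buffer; compounds tested in qHTS format.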
# PTAP-TSG101 blk: inhibitors of HIV-1 PTAP binding to human TSG101, validation | Q99816 | Fluorescence polarization, FITC-PTAP peptide/Tsg101, 20 min | Potency, µM (titrated, usually from 115 µM), without a hit: top-dose activity change, negative = inhibition, hits mostly inhibitors | 44,000 tested, under 10 active | AID 1347069; further: potency means the concentration at half of the fitted maximal effect; 0% is about no effect
#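 Read-out is FITC fluorescence polarization. Compounds were added to Tsg101 binding domain (10 uM final), then FITC-PTAP peptide (50 nM final), 20 min at r.t. Total S+P intensity flags fluorescent compounds.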
# p53null 39C tox: kills p53 null cells at the nonpermissive temperature. Potency, µM (series often up to 46.1 µM), for the others: at the top dose activity, negative = cell killing, hits mostly cytotoxic. 0.97% of 55,000 active. H1299 p53-null (neo) cells, 39C, ATPlite viability, 24 h;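 further: potency means the concentration at half of the fitted maximal effect; 0% = DMSO only and -100% = full killing by 100 µM tamoxifen; nearly all actives have a fitted effect of over 50% in size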
#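 ATP-luminescence viability readout (ATPlite, 20 min RT) after 24 hr compound treatment at 39C of H1299-neo or H1299-p53A138V cells; titration up to 46 uM; normalized to DMSO and 100 uM tamoxifen; Hill-fit AC50.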
# The depositor's hits bear a star; ? = inconclusive; . = no result given; [ ] = remark or other dose. The call rests on the fitted dose curve; in most records, active means well fitted curve in the direction sought with a large enough effect; inconclusive means small, poorly fitted or top-dose-only effect, or another doubt; inactive means no such curve, though single readings can be large; an effect the other way counts as inactive or inconclusive. This is a subset; rates above refer to the full screens.
No.	mol	p53null 32C kill	PTAP-TSG101 blk	p53null 39C tox
1	COc1ccc(-c2cc(C(C)=O)c(C)n2CCC(=O)NCc2ccccc2OC)cc1	12%	-5%	21%
2	COc1ccc(-n2c3c(c(=O)[nH]c2=O)C(NC(C)=O)(C(F)(F)F)C(=O)N3)cc1 (stereo not drawn)	1%	-1%	12%
3	CCN(CC)CCOC(=O)C(Cc1cccc2ccccc12)CC1CCCO1 (stereo not drawn)	.	.	.
4	CCCOc1ccc(-c2cc(C(F)(F)F)c(C#N)c(SCCC(=O)O)n2)cc1	-1%	-15%	6%
5	CC1(C)[C@@H](O)CC[C@]2(C)[C@H]3CC=C4[C@@H]5C[C@](C)(C(=O)O)CC[C@]5(C)CC[C@@]4(C)[C@]3(C)CC[C@@H]12	.	.	.
6	CCOc1ccc(-c2c(C)nn3c(C)c(C(=O)NCCc4ccccc4)cnc23)cc1OCC	8%	4%	-1%
7	COc1cccc2cc(-c3nc4ccc(C)cc4[nH]3)c(=O)oc12	?	-3%	?
8	NC(=O)CSc1oc(-c2ccco2)nc1S(=O)(=O)c1ccc(Cl)cc1	5%	-11%	7%

No.	GALK inh	FH mod	B2AR arrestin ag
1	0%	-1%	-1%
2	-3%	3%	1%
3	.	3%[53.3 µM]	.
4	-2%	?	-2%
5	.	0%	.
6	3%	-7%	1%
7	0%	-6%	-3%
8	-3%	-1%	1%

# Quoted at random: 5 compounds from above.
No.	mol	p53null 32C kill	PTAP-TSG101 blk	p53null 39C tox
8	NC(=O)CSc1oc(-c2ccco2)nc1S(=O)(=O)c1ccc(Cl)cc1	5%	-11%	7%
1	COc1ccc(-c2cc(C(C)=O)c(C)n2CCC(=O)NCc2ccccc2OC)cc1	12%	-5%	21%
7	COc1cccc2cc(-c3nc4ccc(C)cc4[nH]3)c(=O)oc12	?	-3%	?
6	CCOc1ccc(-c2c(C)nn3c(C)c(C(=O)NCCc4ccccc4)cnc23)cc1OCC	8%	4%	-1%
5	CC1(C)[C@@H](O)CC[C@]2(C)[C@H]3CC=C4[C@@H]5C[C@](C)(C(=O)O)CC[C@]5(C)CC[C@@]4(C)[C@]3(C)CC[C@@H]12	.	.	.

No.	GALK inh	FH mod	B2AR arrestin ag
8	-3%	-1%	1%
1	0%	-1%	-1%
7	0%	-6%	-3%
6	3%	-7%	1%
5	.	0%	.

# Later entries:
No.	mol	p53null 32C kill	PTAP-TSG101 blk	p53null 39C tox
9	COc1ccccc1NC(=O)CN1CCCN(S(=O)(=O)c2ccc(Br)cc2)CC1	.	-3%	.
10	Cc1ccc(CNC(=O)c2c(Nc3ccccc3C)sc(C(=O)c3ccc(F)cc3)c2N)cc1	41%[activator]	-3%	5%
11	O=C(CSc1c2c(nc3ccccc13)CCC2)Nc1ccc(F)cc1	1%	-2%	-13%
12	CCOc1ccc(NC(=O)CCc2c(C)nc3cc(-c4ccccc4OC)nn3c2C)cc1	0%	2%	-17%
13	COc1ccc(OC)c(Nc2ncnc3c2cnn3-c2ccc(C)cc2)c1	4%	-8%	11%
14	COc1ccccc1Cn1c(SCC(=O)C(C)(C)C)nc2ccccc2c1=O	5%	-3%	25%
15	Cc1ccc(S(=O)(=O)c2nc(-c3ccco3)oc2SC(C)C)cc1	10%	2%	18%
16	CC(C)(C)C(=O)NC1(C(F)(F)F)C(=O)Nc2c1c(=O)[nH]c(=O)n2-c1ccccc1 (stereo not drawn)	2%	0%	7%

No.	GALK inh	FH mod	B2AR arrestin ag
9	0%	-18%	0%
10	-2%	14%	-2%
11	0%	-2%	0%
12	9%	-7%	1%
13	-2%	-1%	0%
14	-2%	?	-3%
15	-2%	-23%	-1%
16	3%	7%	0%

# Six of the entries above in order of the PTAP-TSG101 blk value, smallest number first.
no.	SMILES	PTAP-TSG101 blk	GALK inh	FH mod	B2AR arrestin ag
8	NC(=O)CSc1oc(-c2ccco2)nc1S(=O)(=O)c1ccc(Cl)cc1	-11%	-3%	-1%	1%
1	COc1ccc(-c2cc(C(C)=O)c(C)n2CCC(=O)NCc2ccccc2OC)cc1	-5%	0%	-1%	-1%
7	COc1cccc2cc(-c3nc4ccc(C)cc4[nH]3)c(=O)oc12	-3%	0%	-6%	-3%
11	O=C(CSc1c2c(nc3ccccc13)CCC2)Nc1ccc(F)cc1	-2%	0%	-2%	0%
2	COc1ccc(-n2c3c(c(=O)[nH]c2=O)C(NC(C)=O)(C(F)(F)F)C(=O)N3)cc1 (stereo not drawn)	-1%	-3%	3%	1%
15	Cc1ccc(S(=O)(=O)c2nc(-c3ccco3)oc2SC(C)C)cc1	2%	-2%	-23%	-1%

# Other results.
No.	mol	p53null 32C kill	PTAP-TSG101 blk	p53null 39C tox
17	O=C(Cn1ncc2c3ccccc3n(Cc3cccc(Cl)c3)c2c1=O)N1CCCCC1	25%	64%[activator]	-2%
18	O=C1c2[nH]nc(-c3ccccc3O)c2C(c2cccc(O)c2)N1Cc1ccncc1 (stereo not drawn)	-6%	-5%	-4%
19	COc1ccc(NC(=O)CN2C(=O)CSc3ccc(S(=O)(=O)N(C)C)cc32)cc1Cl	0%	-1%	2%
20	CCCCN(CC)C(=O)CSc1nc2n[nH]c(C)c2c(=N)n1-c1cccc(OC)c1	17%	3%	24%
21	CCCCOc1ccc(C(=O)Nc2cccc(-c3nc4ccccc4o3)c2C)cc1	-11%	-1%	22%
22	CCc1nn2c(-c3ccco3)ccnc2c1-c1ccccc1	.	28%	.
23	Cc1c(Cl)cccc1NC(=O)c1noc2c1CCCC2	-11%	0%	-13%
24	COc1ccc(CNC(=O)c2c(Nc3ccccc3C)sc(C(=O)c3ccccc3)c2N)cc1	-2%	-9%	16%

No.	GALK inh	FH mod	B2AR arrestin ag
17	-2%	-24%	-3%
18	6%	-3%	-2%
19	-4%	-10%	1%
20	0%	-17%	6%
21	8%	-2%	1%
22	9%	-16%	0%
23	2%	-7%	-1%
24	0%	17%	-2%

# Following part
No.	mol	p53null 32C kill	PTAP-TSG101 blk	p53null 39C tox
25	COc1cc(Cl)c(C)cc1NC(=O)c1cc(S(=O)(=O)N2CCCC2)ccc1F	-4%	-4%	6%
26	CCCCCCCc1ccc(CCc2cccc(O)c2C(=O)O)cc1	.	.	.
27	COc1ccc(-c2[nH]ncc2C(=O)NCc2ccccc2C)cc1	-8%	-2%	-15%
28	Cc1cccn2c(=O)c3cc(C#N)c(=O)n(-c4nnc(SCc5ccc(Cl)cc5)s4)c3nc12	0%	11%	-11%
29	CC(C)(C)OC(=O)N1CCC(OCc2nc(-c3ccncc3)no2)CC1	.	.	.
30	COc1ccc(NC(=O)CCS(=O)(=O)c2ccc3c(c2)n(C)c(=O)c(=O)n3C)cc1Cl	2%	-4%	-12%
31	CCCNC(=O)c1cnc2c(-c3ccc(OCC)c(OCC)c3)c(C)nn2c1-c1ccccc1	0%	-1%	0%
32	CCc1ccccc1NC(=O)CSc1ncc(S(=O)(=O)c2ccccc2)c(N)n1	-14%	-3%	1%

No.	GALK inh	FH mod	B2AR arrestin ag
25	-2%	0%	1%
26	.	-22%[53.3 µM]	.
27	-7%	2%	0%
28	-3%	-8%	-4%
29	.	2%	.
30	6%	-9%	-3%
31	1%	-9%	2%
32	0%	-4%	-1%

# Following part:
No.	mol	p53null 32C kill	PTAP-TSG101 blk	p53null 39C tox
33	CCCN(CCC)CCCNC(=O)c1cc2c(=O)oc3ccc(C)cc3c2s1	2%	-4%	-4%
34	Cc1ccc(N2C(=O)[C@@H]3CSC(c4ccc(Cl)cc4)N3C2=O)cc1 (stereo partly drawn)	?	-4%	10%
35	COc1ccc(C2NC(=O)N(C)C3=C2C(=O)N(c2ccc(C(=O)O)cc2)C3)cc1 (stereo not drawn)	-11%	-4%	-3%
36	Cc1cc(C)cc(OCc2cc(=O)n3c4c(sc3n2)CCCC4)c1	-7%	0%	-5%
37	CCN(C(=O)CSc1nc2n[nH]c(C)c2c(=N)n1-c1cccc(OC)c1)c1cccc(C)c1	8%	-9%	-27%
38	CCOC(CN1CCN(CC(C)C(=O)c2ccccc2)CC1)c1ccccc1 (stereo not drawn)	.	.	.
39	COc1ccc(Cn2ccc3nc(C)c(C(=O)Nc4ccc(OC)c(OC)c4)cc3c2=O)cc1	13%	2%	13%
40	CCOc1ccc(-c2c(C)nn3c(C)c(C(=O)NCc4cccc(OC)c4)cnc23)cc1OCC	-5%	-3%	-6%

No.	GALK inh	FH mod	B2AR arrestin ag
33	1%	-15%	-2%
34	0%	-5%	0%
35	0%	4%	0%
36	-2%	4%	-2%
37	-2%	?	0%
38	.	4%	.
39	-4%	0%	3%
40	2%	1%	-1%

# 3 structures out of the list, ordered by length of the SMILES, low to high:
No.	mol	p53null 32C kill	PTAP-TSG101 blk	p53null 39C tox
36	Cc1cc(C)cc(OCc2cc(=O)n3c4c(sc3n2)CCCC4)c1	-7%	0%	-5%
34	Cc1ccc(N2C(=O)[C@@H]3CSC(c4ccc(Cl)cc4)N3C2=O)cc1 (stereo partly drawn)	?	-4%	10%
40	CCOc1ccc(-c2c(C)nn3c(C)c(C(=O)NCc4cccc(OC)c4)cnc23)cc1OCC	-5%	-3%	-6%

No.	GALK inh	FH mod	B2AR arrestin ag
36	-2%	4%	-2%
34	0%	-5%	0%
40	2%	1%	-1%
